High-throughput results (PubChem)
miR-21 reporter: miR-21 reporter, rising signal; 340,000 tested, under 10 active; Potency, µM (highest dose often 38.3 µM), inactives show top-dose reporter change, positive = more light; AID 2288; HeLa miR-21 FLuc reporter, luciferase, 48 h; active = well fitted rising curve with a large enough effect; inconclusive = small, poorly fitted or top-dose-only effect; inactive = no such curve, though single readings can be large or run the other way;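 further: % of control where 0% means no effect; miR-21 action dims this reporter so a rising signal means less miR-21 action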
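HeLa cells stably expressing CMV-driven firefly luciferase with a downstream miR-21 binding sequence, endogenously expressing miR-21, were treated with titrations (up to about 40uM final) for 48 hours at 37 degree Celsius. Luciferase luminescence was read after lysis.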
Rango-impB inh: Rango-importin beta binding inhibition; Q14974; Rango CFP/YFP FRET sensor + importin beta, 45 min; Potency, µM (titrated, usually from 92.2 µM), for the others: top-dose inhibition of complex formation; hit rate 0.031% among 340,000; active = rising FRET ratio curve, often small or poorly fitted; inconclusive = mostly compound fluorescence or quenching in the first reads; inactive = flat curves in all reads;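 further: potency means the concentration at half of the fitted maximal effect; 0% = DMSO wells and 100% = buffer wells lacking importin beta; nearly all actives have a fitted effect of over 15% in size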
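FRET biosensor (snurportin 1 IBB flanked by EYFP and cerulean), 50 nM, with compound 5 min, then 0.125 microM importin beta in PBS, 1 mM DTT, 0.02% Tween-20, 0.1% BSA. CFP/YFP ratio read after 45 min at room temperature; pre-read flags interference.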
Rango dissoc inh: prevents RanGTP from dissociating the Rango-importin beta complex. Biochemical FRET Rango-importin beta, RanGTP-induced dissociation. hit rate 0.071% among 340,000. O95149+P62826. Potency, µM (series often up to 46.1 µM), without a hit: top-dose activity change, negative = inhibition; active means falling FRET ratio curve, often poorly fitted, with flat reads before Ran was added; inconclusive means other falling curves, or compound fluorescence or quenching; inactive means flat or rising ratio curve;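 further: potency means the concentration at half of the fitted maximal effect; % of control where 0% means no effect; nearly all actives have a fitted effect of over 45% in size; -100% = wells without RanGTP and RCC1; the record marks most hits as doubtful in a second field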
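Rango/importin beta premix (0.1/0.25 uM final), PBS + 1 mM DTT + 0.02% Tween-20 + 0.1% BSA; cpd 5 min RT; FRET pre-read; + RanGTP-RCC1 (0.6 uM Ran, 2 mM GTP, 0.2 uM RCC1); 45 min RT; FRET post-read, ex 430, em 486/530 nm.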
GLA inh pH 4.5: alpha-galactosidase A (human) inhibition, pH 4.5; P06280; purified enzyme, 4-MU-alpha-Gal fluorescence, pH 4.5; activity change, negative = inhibition, % at 105 µM; 230,000 tested, under 10 active; inconclusive = small, poorly fitted or top-dose-only inhibition, or a rising curve; inactive = flat fitted curve, though single readings scatter; no compound was filed as active;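 further: 0% = full activity with enzyme and -100% = basal without enzyme; dose as in the result columns while the protocol names 77 µM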
Target sequence (P06280 whole entry, looked up): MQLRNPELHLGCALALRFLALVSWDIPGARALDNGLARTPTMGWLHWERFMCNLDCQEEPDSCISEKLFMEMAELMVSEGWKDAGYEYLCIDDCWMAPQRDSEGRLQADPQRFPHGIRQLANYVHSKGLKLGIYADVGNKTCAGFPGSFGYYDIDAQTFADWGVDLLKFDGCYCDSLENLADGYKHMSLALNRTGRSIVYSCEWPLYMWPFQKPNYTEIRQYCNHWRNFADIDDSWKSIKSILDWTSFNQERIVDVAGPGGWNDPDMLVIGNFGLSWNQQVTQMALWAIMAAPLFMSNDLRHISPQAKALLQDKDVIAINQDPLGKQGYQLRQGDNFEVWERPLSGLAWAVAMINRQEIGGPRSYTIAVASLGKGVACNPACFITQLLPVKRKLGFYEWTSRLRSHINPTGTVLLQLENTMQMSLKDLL
Numbers without * were called inactive; u = inconclusive; x = not tested or not shown; & = joins results of further samples.

SMILES	miR-21 reporter	Rango-impB inh	Rango dissoc inh	GLA inh pH 4.5
COc1ccc(C(=O)NNC(=O)CCC(=O)Nc2ccc(C)cc2C)cc1	-5%	0.4%	2%	x
C=CCC[C@H](Cc1ccc(F)cc1)C(=O)OC[C@@H](C)NC(=O)[C@@H](CC=C)CC(=O)N[C@@H](CO)Cc1ccccc1	x	1.2%	3%	x
C/C(=N\O)C1(C)N(O)C(C)(C)C(c2ccc(Br)cc2)=[N+]1[O-] (stereo unspecified)	1%	-0.6%	-6%	-1
Cc1cccc(Nc2c([N+](=O)[O-])ccc3nonc23)c1	-11%	0.1%	-9%	x
CC(C)(C)C(=O)OCc1cn(-c2ccccc2)nn1	-30%	-1.6%	4%	-8
C/C(=N\NC(=O)c1ccco1)c1ccc(NC(=O)C(F)(F)F)cc1	-58%	0.6%	-3%	x
CCN(CC)S(=O)(=O)c1ccc(NC(=O)CCNC(=O)c2ccco2)cc1	-4%	7.6%	-2%	x
CCOC(=O)C1CCN(C(=O)COC(=O)CNC(=O)c2ccc(OC)cc2)CC1	3%	-0.5%	1%	2
O=C(NCC1CCCC(CNC(=O)Nc2ccc(Cl)cn2)C1)Nc1ccc(Cl)cn1 (stereo unspecified)	u	4.1%	0%	x
CC(C)C(c1nnnn1C1CCCC1)N1CCN(C(=O)c2ccco2)CC1 (stereo unspecified)	-3%	-1.2%	1%	-2
O=C(COC(=O)Cc1ccc(Cl)cc1Cl)NC1CC1	x	2.4%	3%	x
Cc1ccc(-c2nc3ccsc3c(=O)[nH]2)cc1	-41%	2.4%	3%	9
COC(=O)c1ccccc1SCC(=O)Nc1ccc(N2CCOCC2)cc1	-30%	1.6%	-5%	x
COCCN1C(=O)c2ccccc2C(C(=O)Nc2ccc3c(c2)OCCO3)C1c1ccc(F)cc1 (stereo unspecified)	-7%	1.1%	1%	7
COc1ccc(CC(=O)Nc2ccc(S(=O)(=O)Nc3ncccn3)cc2)cc1OC	-6%	1.7%	4%	1
COC(=O)CCN1CCN(S(=O)(=O)c2ccc3c(c2)OCCO3)CC1	x	0.7%	-2%	x
CCc1ccc(C(=O)/C=C/c2cnn(C)c2C)s1	-53%	-4.5%	-10%	-8
COc1ccc(CCNC(=O)CCNS(=O)(=O)c2cccc3nonc23)cc1OC	-5%	0.2%	9%	10
O=C(N(c1ccccn1)c1ccccn1)C12CC3CC(CC(C3)C1)C2	-7%	1.4%	6%	8
COCc1cc(/C=N\NC(=O)COc2ccc(Cl)cc2)ccc1OC	-3%	-0.3%	1%	6
Cn1c(Cl)c(/C=N/OC(=O)c2cccc(Cl)c2)c2ccccc21	-6%	1.0%	-6%	-18
Clc1ccccc1-c1ccc2ncnc(NCc3cccnc3)c2c1	x	2.3%	35%	x
COc1ccc(-c2nc(NC(C)=O)sc2-c2ccccc2)cc1	4%	-6.3%	-1%	-3
S=C(NCc1ccccc1)NC1CCCCC1	-7%	-1.2%	-6%	-10
O=C1C[C@@H](c2ccccc2)Oc2cc(O)cc(O)c21	x	2.9%	-16%	x
O=C(CSc1nc2ccccc2s1)Nc1cc(S(=O)(=O)N2CCOCC2)ccc1O	-7%	-2.3%	-1%	6
O=C(CN1C(=O)CSc2ncccc21)Nc1ccccc1F	-12%	1.3%	-4%	x
CS(=O)(=O)c1ccc2nc(NC(=O)Nc3ccccc3F)sc2c1	-47%	0.4%	5%	x
CCOc1ccc(CN(C)CC(=O)Nc2cccc3ccccc23)cc1OC	-4%	2.5%	15%	u
COc1cc(CC(=O)Nc2ccc(Cl)c(C(F)(F)F)c2)cc(OC)c1OC	19%	-0.9%	7%	5
O=C(O)c1cc(-c2ccc(N3CCOCC3)cc2)nn1-c1ccccc1Cl	-25%	-3.1%	15%	-10
O=C(O)c1cc(N2CCCC2)ccn1	x	-2.8%	u	x
O=C(NCc1ccncc1)c1ccc(Cl)c(S(=O)(=O)N2CCCCC2)c1	-1%	-2.3%	-6%	-20
CC(Cn1cncn1)C(=O)N1CCN(S(=O)(=O)c2ccc(Cl)cc2)CC1 (stereo unspecified)	4%	-1.7%	-1%	x
CCNC(=O)CSc1nnc(-c2cccs2)o1	-4%	6.1%	27%	-1
O=Cc1ccccc1Oc1ccccc1	-2%	-1.2%	-19%	-1
COC(=O)c1c(NC(=O)C2CC2)sc2c1CCN(C(C)=O)C2	10%	u	-11%	5
CC(=O)Nc1ccc(CN2CCC(CO)(CCOc3ccccc3)CC2)cc1	-5%	2.6%	10%	3
COc1ccc(-c2cc(C(F)F)n3ncc(C(=O)N4CCSCC4)c3n2)cc1	-5%	0.2%	-17%	-5
COc1ccc(/C(N)=N/O)cc1O	-4%	0.6%	1%	5
O=C(CCC1CCCCC1)NC1=NCCS1	-7%	-5.2%	-4%	-6
COc1ccc(OC)c(NC(=O)CCNS(=O)(=O)c2cccc3nsnc23)c1	-2%&1%	3.0%	0%	x
CN(CC(=O)Nc1ccccc1Br)C(=O)CCc1nc2ccccc2c(=O)[nH]1	x	0.0%	-10%	x
Cc1ncccc1C(=O)N1CCCC(CNC(=O)c2ccc(-c3ccccc3)cc2)C1 (stereo unspecified)	4%	0.5%	0%	-2
CC(=O)NCCC(=O)Nc1nc2c(ccc3ccccc32)s1	-20%	-0.1%	17%	x

Arranged by heavy-atom count (low to high): part of the list above.
SMILES	miR-21 reporter	Rango-impB inh	Rango dissoc inh	GLA inh pH 4.5
O=C(CCC1CCCCC1)NC1=NCCS1	-7%	-5.2%	-4%	-6
O=C(NCc1ccncc1)c1ccc(Cl)c(S(=O)(=O)N2CCCCC2)c1	-1%	-2.3%	-6%	-20
C=CCC[C@H](Cc1ccc(F)cc1)C(=O)OC[C@@H](C)NC(=O)[C@@H](CC=C)CC(=O)N[C@@H](CO)Cc1ccccc1	x	1.2%	3%	x

Later entries
SMILES	miR-21 reporter	Rango-impB inh	Rango dissoc inh	GLA inh pH 4.5
CC(=O)C1=C(O)C=C(c2ccco2)CC1c1ccco1 (stereo unspecified)	-8%	1.1%	-28%	-19
COCc1nnc(NC(=O)c2c(-c3c(Cl)cccc3Cl)noc2C)s1	6%	-1.3%	9%	x
Cc1onc(-c2ccccc2Cl)c1C(=O)NCc1ccco1	-2%	2.9%	-25%	5
O=C(O)CC1(CC(=O)Nc2nccs2)CCCCC1	x	-2.0%	14%	x
O=C(c1cc(-c2ccc(Cl)cc2)on1)N1CCN(c2ccccc2)CC1	-53%	0.0%	20%	x
N=C1SCC(=O)N1c1ncc(Cc2ccc(F)cc2)s1	1%	6.1%	2%	6
CC1CCN(C(=O)c2ccc(CSc3ccc(Cl)cc3)cc2)CC1	-5%	-0.2%	9%	6
COc1ccc(NC(=O)c2cc3c(CO)cnc(C)c3oc2=Nc2cccc(C)c2)c(OC)c1	-2%	-3.8%	7%	x
CCOc1ccc(NC(=S)N(CCN2CCOCC2)Cc2cc3cc4c(cc3[nH]c2=O)OCO4)cc1	-2%	1.7%	-20%	4
CCN(CC)CCCN1C(=O)c2oc3ccccc3c(=O)c2C1c1cccnc1 (stereo unspecified)	-4%	u	u	-1
CCC(=O)N1CCc2cc(OC)c(OC)cc2C1COc1ccc(OC)cc1 (stereo unspecified)	-1%	-0.2%	-4%	1
[N-]=[N+]=NC1C[C@H](n2ccc(=O)[nH]c2=O)O[C@@H]1CO (stereo partly specified)	-1%	0.1%	2%	x
Cc1ccc(CNC(=O)C(NS(=O)(=O)c2cccs2)C(C)C)cc1 (stereo unspecified)	1%&0%	-1.5%	22%	-2
CCCCc1c(O)c2ccccc2n(CCCC)c1=O	-12%	-1.9%	1%	-2
CC1(C)[N+]([O-])=C2C(=[N+]([O-])C1(C)C)c1ccccc1/C2=N\O	-4%	0.4%	-5%	3

20 of the compounds above, with values ahead of the structure.
miR-21 reporter | Rango-impB inh | Rango dissoc inh | GLA inh pH 4.5 | canonical_smiles
-5% | 2.6% | 10% | 3 | CC(=O)Nc1ccc(CN2CCC(CO)(CCOc3ccccc3)CC2)cc1
-5% | 0.2% | -17% | -5 | COc1ccc(-c2cc(C(F)F)n3ncc(C(=O)N4CCSCC4)c3n2)cc1
-4% | 0.6% | 1% | 5 | COc1ccc(/C(N)=N/O)cc1O
-7% | -5.2% | -4% | -6 | O=C(CCC1CCCCC1)NC1=NCCS1
-2%&1% | 3.0% | 0% | x | COc1ccc(OC)c(NC(=O)CCNS(=O)(=O)c2cccc3nsnc23)c1
x | 0.0% | -10% | x | CN(CC(=O)Nc1ccccc1Br)C(=O)CCc1nc2ccccc2c(=O)[nH]1
4% | 0.5% | 0% | -2 | Cc1ncccc1C(=O)N1CCCC(CNC(=O)c2ccc(-c3ccccc3)cc2)C1 (stereo unspecified)
-20% | -0.1% | 17% | x | CC(=O)NCCC(=O)Nc1nc2c(ccc3ccccc32)s1
-8% | 1.1% | -28% | -19 | CC(=O)C1=C(O)C=C(c2ccco2)CC1c1ccco1 (stereo unspecified)
6% | -1.3% | 9% | x | COCc1nnc(NC(=O)c2c(-c3c(Cl)cccc3Cl)noc2C)s1
-2% | 2.9% | -25% | 5 | Cc1onc(-c2ccccc2Cl)c1C(=O)NCc1ccco1
x | -2.0% | 14% | x | O=C(O)CC1(CC(=O)Nc2nccs2)CCCCC1
-53% | 0.0% | 20% | x | O=C(c1cc(-c2ccc(Cl)cc2)on1)N1CCN(c2ccccc2)CC1
1% | 6.1% | 2% | 6 | N=C1SCC(=O)N1c1ncc(Cc2ccc(F)cc2)s1
-5% | -0.2% | 9% | 6 | CC1CCN(C(=O)c2ccc(CSc3ccc(Cl)cc3)cc2)CC1
-2% | -3.8% | 7% | x | COc1ccc(NC(=O)c2cc3c(CO)cnc(C)c3oc2=Nc2cccc(C)c2)c(OC)c1
-2% | 1.7% | -20% | 4 | CCOc1ccc(NC(=S)N(CCN2CCOCC2)Cc2cc3cc4c(cc3[nH]c2=O)OCO4)cc1
-4% | u | u | -1 | CCN(CC)CCCN1C(=O)c2oc3ccccc3c(=O)c2C1c1cccnc1 (stereo unspecified)
-1% | -0.2% | -4% | 1 | CCC(=O)N1CCc2cc(OC)c(OC)cc2C1COc1ccc(OC)cc1 (stereo unspecified)
-1% | 0.1% | 2% | x | [N-]=[N+]=NC1C[C@H](n2ccc(=O)[nH]c2=O)O[C@@H]1CO (stereo partly specified)

The listing continues:
SMILES	miR-21 reporter	Rango-impB inh	Rango dissoc inh	GLA inh pH 4.5
NC1=NC[C@@H](Cc2ccc(O)cc2)N1CCc1cc(C(F)(F)F)cc(C(F)(F)F)c1	6%	0.4%	6%	4
Cc1cc2ncc(-c3ccc(Cl)cc3)cn2n1	-47%	1.4%	8%	7
COc1ccccc1CNC(=O)c1ccc(CNc2c(N3CCCC3)c(=O)c2=O)cc1	-5%	-3.8%	5%	3
O=C(Nc1c(F)cccc1F)c1ccc2c(c1)CCN2S(=O)(=O)c1ccccc1	-3%	-3.2%	4%	x
Cc1ccc(COn2nnc3ccc(S(=O)(=O)N4CCOCC4)cc32)cc1	x	14%	-5%	x
COc1ccc2c(c1)c(C(=O)N1CCN(C)CC1)c(C)n2-c1ccccc1	-10%	1.6%	2%	-7
NC(=O)C1CCCc2c1n(Cc1ccccc1)c1ccccc21 (stereo unspecified)	6%	-4.4%	8%	x
N#Cc1cnn(-c2ncnc3sc(-c4ccccc4)cc23)c1N	-6%	2.6%	-11%	2
COC(=O)COc1ccc(S(=O)(=O)Nc2ccc3c(c2)OCO3)cc1	-8%	1.2%	3%	2

Not all compounds are listed; count on the stated rates, not on these rows.
